# PABP FP inh: PABP poly(A) RNA binding inhibitors, primary screen, biochemical, fluorescence polarization, uHTS; inhibition, % at 35 µM; 1% of 290,000 active; AID 2014, 2009;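 active = 50% or more with normal probe brightness, or confirmed in later tests; inconclusive = above 50% with abnormal brightness, or retests that disagree; inactive = below 50% or failed in later tests; about a fifth of its hits are not listed in these tables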;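 note: calls also rest on retests at 20 µM and on dose response follow-up; controls were probe without protein and protein plus probe with vehicle; some compounds called inactive have numbers as strong as hits; many hits fall short of the cut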
# MT1-MMP act inh: blockers of MT1-MMP proenzyme processing, primary screen, HT1080 RFP-PRO-GFP cells, GFP/RFP fluorescence. 0.061% of 360,000 active. AID 651647, 2012. GFP/RFP ratio fluorescence, overnight; percent of plate control window, DMSO zero. GFP/RFP ratio change, % at 20 µM. Matrix metalloproteinase-14 (Homo sapiens), P50281;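 active = GFP/RFP ratio change of at least 30% with cell ATP level not reduced by more than half and red fluorescence within 50% of control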; note: strong numbers were not always called active
#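 Test system: HT1080 RFP-PRO-GFP cells; Benchmarks: DMSO and RFP-L50D-GFP cell wells; Timing: cells overnight before dosing, compound overnight, 37 °C, 5% CO2; Compound: one 20 µM compound dose with 1% DMSO; Read-out: GFP/RFP fluorescence ratio.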
# CSC inhib: cancer stem cell viability inhibitors, primary screen, luminescence; cancer stem cell-like cells viability; inhibition, % at 7.5 µM; 1.1% of 300,000 active;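 active = mean at 75% or more and at least half the replicates too; inconclusive = mean and replicates disagree; tested in HMLE shEcad cells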;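 note: 0% = median of negative and 100% = median of positive control wells; the first replicate is given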
# HIV Env fusion: inhibitors of HIV-1 Env-driven cell-cell fusion, primary screen, HeLa-JRFL effector, CEM21 target cells, luciferase; inhibition, % at 12.3 µM; AID 651610, 2012; 1.1% of 360,000 active;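 active = mean replicate inhibition score of at least 50 and every replicate individually at or above 50; inconclusive = only one of the two criteria met; inactive = mean below 50 and not all replicates reaching 50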;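 note: 0% = plate neutral controls and 100% = maraviroc near 300 nM; one replicate is shown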
# Rce1 inhib: yeast Rce1p protease inhibitors, primary screen, biochemical, fluorescence, cell-free homogeneous. yeast membranes, quenched prenylated peptide cleavage fluorescence. 0.27% of 290,000 active. calls only. CAAX prenyl protease 2 (Saccharomyces cerevisiae (strain ATCC 204508 / S288c)), Q03530. AID 2563, 2010;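 active = fall in fluorescence gain of 50% or more versus controls, with final raw signal at or below 3038400; inconclusive = same 50% fall but final raw signal above 3038400; inactive = fall in fluorescence gain under 50%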;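 note: plate controls were neutral control wells for no effect and wells lacking membranes for full effect; tested at 10 µM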
# Target sequence (Q03530 whole entry, looked up): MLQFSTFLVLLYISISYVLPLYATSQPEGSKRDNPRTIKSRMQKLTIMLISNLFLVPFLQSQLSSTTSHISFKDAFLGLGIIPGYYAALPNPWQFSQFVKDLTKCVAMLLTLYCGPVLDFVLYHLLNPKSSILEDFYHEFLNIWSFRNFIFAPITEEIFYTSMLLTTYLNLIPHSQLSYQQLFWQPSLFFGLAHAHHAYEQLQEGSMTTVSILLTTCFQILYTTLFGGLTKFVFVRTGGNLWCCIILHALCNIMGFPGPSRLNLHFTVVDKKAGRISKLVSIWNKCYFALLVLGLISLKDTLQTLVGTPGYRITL
# UUG fidelity: modulators of yeast start codon fidelity, primary screen, whole organism, S. cerevisiae, single point, plate reader. 0.13% of 350,000 active. S. cerevisiae UUG-firefly luciferase reporter, luminescence/redox ratio. activity score, % at 18.7 µM;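 active = replicate mean at a twofold rise or more, about +100% in these data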;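 note: firefly luciferase made from a UUG start codon reports start codon fidelity; reporter light over untreated wells divided by growth signal over untreated wells; some hits fall short of that in this replicate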
# eIF4H inh: human eIF4H binding inhibitors, primary screen, translation initiation inhibitor project, biochemical, uHTS, fluorescence polarization; eIF4H fluorescence polarization binding assay; inhibition, % at 35 µM; 0.94% of 290,000 active;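 active = 50% or more with normal probe brightness, or confirmed in later tests; inconclusive = above 50% with abnormal brightness, or retests that disagree; inactive = below 50% or failed in later tests; about a fifth of its hits are not listed in these tables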;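 note: calls also rest on retests at 20 µM and on dose response follow-up; 0% = protein and probe with vehicle and 100% = probe without protein; strong numbers were not always called active; many hits fall short of the cut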
# eIF4H inh retest: further read-out of eIF4H inh, marked with its call; inhibition, %; compound at 20 µM; confirmation average;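 mean of two retest wells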
# PABP FP inh retest: second read-out of PABP FP inh, no call of its own (marks repeat the call); inhibition, %; compound at 20 µM; confirmation repeats;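 mean of two retest wells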
# MT1-MMP act inh RFP: also measured in MT1-MMP act inh; calls as there; RFP signal change, %; measured here: RFP expression control read;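 0 = vehicle wells; hits needed this value within 50% of zero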
# * = called active by the depositor; i = inactive; u = inconclusive; x = no result given; & = joins results of further samples. Not all compounds are listed (hit frequency here may not be typical).
SMILES,PABP FP inh,MT1-MMP act inh,MT1-MMP act inh RFP,CSC inhib,HIV Env fusion,Rce1 inhib,UUG fidelity,eIF4H inh,others
COCCn1c(SCC(=O)NCc2ccc3c(c2)OCO3)nnc1-c1c[nH]c2ccccc12,0,-2,1,2,x,i,-15,0,
CC(=O)c1c(C)[nH]c(C(=O)Nc2cccnc2)c1C,5,-2,5,-3,18,i,-15,-2,
Cc1nn(C)c(C)c1S(=O)(=O)N1CCC(C(=O)NCC2COc3ccccc3O2)CC1 (stereo not given),1,1,2,-1,3,i,8,-4,
COc1c2n(C)ccc3c-2n(c(=O)c1=O)c1ccccc31,x,6,4,-6,x,i,-9,x,
C=CC(=O)Nc1ccc(Br)cc1,-9,0,4,-8,x,i,-12,-2,
COC(=O)c1ccc(C2Nc3cccc4cccc(c34)N2)cc1,7,-2,7,-5,6,i,7,87,eIF4H inh retest=20;PABP FP inh retest=26
COc1ccc([C@H]2CC(=O)C=C(c3cccc(F)c3OC)C2)cc1,x,2,-4,34,-24,x,-12,x,
CC1CN=C(NC2CCCCC2C)S1 (stereo not given),-4,4,6,x,x,i,-1,-7,
COc1ccc(N2C(=O)CCC(C(=O)O)C2c2ccccc2OC)cc1 (stereo not given),-2,2,-2,-1,7,i,x,-9,
COc1cc(OC)c(S(=O)(=O)N2CCN(C(=O)c3ccccc3F)CC2)cc1NC(C)=O,-11,1,2,-13,-3,i,x,2,
CC(C)CCCC(C)NC(=O)c1cc(S(=O)(=O)N2CCCCC2)ccc1N1CCOCC1 (stereo not given),x,-5,-7,x,9,x,11,x,
CC(=O)c1ccc(N(CC(=O)NC2CCCC2)C(=O)c2ccc(C)s2)cc1,-1,2,4,x,-8,i,3,-5,
CCc1c(C)c2ccc(OCC(=O)N(C)C)c(C)c2oc1=O,1,2,6,-15,-31,x,-16,-6,
Cc1ccccc1C(=O)N1CCN(c2ccc(NC(=O)c3ccco3)cc2)CC1,5,-3,-3,-6,44,i,-1,1,
COc1ccc(C(=O)N2CCN(c3ccc(NC(=O)c4ccco4)cc3)CC2)cc1,3,0,-5,-6,9,i,-12,-6,
CCC[C@H]1CN(c2ccc(Br)cc2)C(=O)[C@@H]1CC(=O)Nc1ccc(OC)cc1,x,-9,-13,x,-31,x,-3,x,
O=C(CC(=O)N/N=C/c1c(Cl)cccc1Cl)NCc1cccnc1,-2,0,0,-3,-24,x,-21,-15,
Cc1cc(C)cc(NC(=O)COC(=O)[C@@H](NC(=O)c2ccco2)C(C)C)c1,6,2,3,-13,25,i,x,-12,
CCOC(=O)C1=C(O)CSC1=Nc1ccccc1,18,2,9,-8,x,i,-17,15,
Cc1c(C#N)c(=O)oc2ccc3ccccc3c12,u,-6,-1,x,-159,i,-15,u,
COC(=O)c1c(C(=O)OC)c2cccc3cc(-c4ccccc4)c4ccc1c4n32,121,-5,-2,26,x,i,-15,127,eIF4H inh retest=4;PABP FP inh retest=8
Cc1cccc(C)c1NC(=O)CCCSc1nnc(-c2ccc(F)cc2)n1-c1ccccc1,-1,-9,-21,-2,14,i,-19,13,
CCCn1c(SCc2ccccc2)nc2c1c(=O)[nH]c(=O)n2C,-7,2,0,1,x,i,-10,-2,
CC(=O)Nc1ccc(C(=O)CSc2nnnn2C)cc1,10,9,7,x,-11,i,-24,-4,
COc1ccc(/C=C2\SC(=S)N(CCC(=O)NC3C=CS(=O)(=O)C3)C2=O)cc1 (stereo not given),11,-5,2,2,30,i,-21,0,
COC(=O)C1=C(C(=O)OC)[C@]2([C@H]3CC=CCN[C@@H](Cc4ccccc4)C(=O)N3Cc3ccccc3)C=C[C@H]1O2,x,-5,-22,x,58*,x,-4,x,
Nn1c(Cc2ccccc2F)nnc1SCC(=O)N1CC(=O)Nc2ccccc21,5,5,8,15,-28,i,-12,9,
C=CCn1c(SCC(=O)N2CCOCC2)nc(O)cc1=O,9,-1,7,-4,0,i,-9,-2,
COc1ccc2c(c1)[N+](C)(C)C(C)(C)C=C2C,-6,-1,3,-7,-6,i,1,-7,
COc1ccc(NC(=O)CN(C)C(=O)CNC(=O)Cc2cccc3ccccc23)cc1,10,-7,-2,x,4,i,-5,4,
Cc1ccc(S(=O)(=O)N2CCC(C(=O)N3CCCCCCC3)CC2)cc1,x,-7,-3,x,-3,x,-20,x,
CCc1ccccc1NC(=O)c1ccc(NCCc2ccccc2)c([N+](=O)[O-])c1,5,3,-6,3,-42,i,x,-16,
O=C(N=C1c2ccccc2CN1c1ccc(F)c(F)c1)c1cccnc1,20,-12,-1,2,-4,i,x,0,
Cc1ccc(NC(=O)CN(C)C(=O)COc2ncnc3ccc(Br)cc23)cc1,x,-4,-6,-2,23,x,-3,x,
O=C(NCc1ccccc1)c1cccc2c1C(=O)c1ccc(/C=C/c3ccccc3)cc1S2(=O)=O,x,-11,-5,x,9,x,-15,x,
COc1c2ccoc2cc2oc(C)cc(=O)c12,x,-2,2,-5,x,i,18,x,
CCN(CC)S(=O)(=O)c1cccc(NC(=O)CN2C(=O)NC3(CCOc4ccccc43)C2=O)c1 (stereo not given),x,3,0,x,-31,x,-14,x,
Brc1ccc(-c2csc(N3CCC(c4ccccc4)C3)n2)cc1 (stereo not given),-8,2,-4,6,-189,i,-2,6,
CN(CCc1ccccn1)C(=O)CCc1nnc(CCCc2ccccc2)o1,11,-4,1,x,-28,i,x,-4,
Cc1ccc(C(=O)NC(C)c2ccc(-n3ccnc3)cc2)c(C)c1 (stereo not given),-9,1,-3,11,-29,i,-15,2,
NC1=NC2(CCN(Cc3ccccc3)CC2)n2c(nc3ccccc32)N1,-4,-2,-2,-4,-59,i,-18,-4,
CCOCCCNC(=O)c1cc(Sc2ccc(F)cc2)nc2ccccc12,-4,4,-8,-16,x,i,x,-5,
C[C@H](CO)N1C[C@H](C)[C@@H](CN(C)S(C)(=O)=O)Oc2ccc(NS(=O)(=O)c3ccccc3)cc2C1=O,x,-1,2,-13,2,x,-12&-15,x,
CCCC(=O)N(CCN1CCOCC1)c1nc2c(F)cc(F)cc2s1,6,-5,-2,-19,0,i,-4,-13,
CCOc1ccccc1CNC(=O)c1cc2oc3ccccc3c2n1C,1,1,-1,33,-37,i,-23,-10,
Cc1c(C(=O)N2CCN(c3ncccn3)CC2)oc2c(Cl)cccc12,x,1,-2,-3,6,i,x,x,
O=C(NCc1ccc(Cl)cc1)C(=O)NCC(c1cccnc1)N1CCN(c2ccc(F)cc2)CC1 (stereo not given),2,-6,-22,20,62*,i,x,-1,
CC(=O)c1cccc(NC(=O)COc2cc(C)on2)c1,x,-2,8,3,x,x,-14,x,
Fc1ccc(OCc2nn3c(Cn4nnc5ccccc54)nnc3s2)cc1,-2,0,2,-7,-41,x,-18,2,
O=C(CC(Nc1ccccc1Cl)C(=O)OCC(=O)c1cccs1)c1ccccc1 (stereo not given),-2,-1,0,4,-130,i,x,-3,
CC(=O)NC1Sc2ccccc2N=C1c1ccccc1 (stereo not given),-7,-3,3,-7,x,i,-2,-6,
Cn1c(N)c(C(=O)COC(=O)CCCOc2ccc(Cl)cc2Cl)c(=O)n(C)c1=O,-14,7,4,0,6,i,x,-10,
CCOC(=O)N1CCN(C(=O)c2ccc(S(=O)(=O)Nc3ccccc3)cc2)CC1,x,1,-9,-2,-12,x,-8,x,
CC(NC(=S)Nc1ccc(F)cc1)C(c1cccs1)N1CCOCC1 (stereo not given),-1,1,3,-3,1,i,-12,-7,
Cc1ccc(S(=O)(=O)NCC(=O)OCC(=O)NCc2ccc3c(c2)OCO3)cc1,x,0,2,x,68*,x,4,x,
CC(C)c1ccc(/C=C2\C(=N)N3N=C(CC(=O)N4CCCCC4)SC3=NC2=O)cc1,9,-5,-1,-14,-1,i,-2,-8,
OCC[C@H]1C[C@@H](O)[C@H](O)[C@]2(OCCc3ccccc32)O1,x,0,4,7,19,x,-13,x,
CC(=O)Nc1ccc(Nc2nc3ccccc3n3cnnc23)cc1,9,-2,2,8,6,i,-13,-11,
CN(Cc1ccccc1NCC(=O)Nc1ccccc1C#N)C1CCCCC1,13,2,4,-1,13,i,-24,-2,
CCCSc1nc(C)c(CC(=O)OCC)c(=O)[nH]1,10,2,5,-17,x,i,-31,-4,

# A portion taken from the entries so far, for reference:
SMILES,PABP FP inh,MT1-MMP act inh,MT1-MMP act inh RFP,CSC inhib,HIV Env fusion,Rce1 inhib,UUG fidelity,eIF4H inh,others
CN(Cc1ccccc1NCC(=O)Nc1ccccc1C#N)C1CCCCC1,13,2,4,-1,13,i,-24,-2,
CCCSc1nc(C)c(CC(=O)OCC)c(=O)[nH]1,10,2,5,-17,x,i,-31,-4,

# Other records
SMILES,PABP FP inh,MT1-MMP act inh,MT1-MMP act inh RFP,CSC inhib,HIV Env fusion,Rce1 inhib,UUG fidelity,eIF4H inh,others
Cc1cccc(NC(=S)NCc2ccccn2)c1,-10,1,6,-16,x,i,-33,-7,
Cc1cc(C)nc(SCCC(=O)Nc2ccccc2C)n1,2,2,2,-8,x,i,-11,-1,
O=C1CSC(c2ccncc2)N1Cc1ccccc1 (stereo not given),-1,5,-1,-3,-10,i,x,-16,
CCc1ccc2oc(-c3ccc(N)cc3)nc2c1,-2,-2,-3,50,x,i,-55,-12,
COC(=O)c1c(NC(=O)CCCC(=O)O)sc2c1CCCCC2,42,-1,-2,1,0,i,x,-1,
Cc1nc(-c2ccccn2)nc(N2CCOCC2)c1Cl,-11,-1,0,-4,-6,i,-27,-9,
Cc1c(-c2ccccc2)[n+](=O)c(-c2ccco2)c(C)n1[O-],2,2,2,-13,-24,i,-11,2,
O=S(=O)(Cc1ccccc1)C(c1ccccc1)S(=O)(=O)Cc1ccccc1,x,-1,-5,x,9,x,-16,x,
O=C(NCC(=O)N(Cc1ccco1)C(C(=O)NC1CCCC1)c1cccnc1)c1cccs1 (stereo not given),6,0,2,-3,-47,i,-19,-6,
Cc1ccc(NC(=O)Nc2cccc(C)n2)c(C)c1,-4,-4,0,-4,-116,i,-13,5,
O=[N+]([O-])c1cccc(/C=N/Nc2nnc(-c3ccccc3)c(-c3ccccc3)n2)c1,4,2,8,4,-10,i,0,8,
COc1ccc(-c2noc(CNC(=O)CCCN3C(=O)[C@H]4CC=CC[C@H]4C3=O)n2)cc1,-10,-4,-2,11,4,i,-18,-4,
COc1ccc(CNC(=O)C(C)NC(=O)c2cc3ccccc3o2)cc1 (stereo not given),-4,-2,2,5,x,i,-1,-5,
Cc1cc(C)c(C)c(N=Nc2nc3ccccc3n2C)c1C,-14,7,-3,33,-40,i,x,3,
O=C1c2ccccc2C(=O)N1C/C=C/c1ccccc1,3,0,0,11,-44,i,-25,-2,
O=C(NC1CC1)C1=C[C@H](C2CC2)C[C@H](OCCCCO)O1,4,3,3,7,-12,i,-11,2,
CC(=O)c1cc(NC(=O)c2cccc(C(F)(F)F)c2)c(=O)oc1C,-1,-1,1,1,-24,i,x,0,

# Source: PubChem BioAssay (several laboratories)
